# Bioassay records from PubChem BioAssay.
# D2 agonist = human D2 receptor agonism in beta-arrestin assay; 360,000 tested, 0.084% active; P14416; activation, % (no concentration beside the values); DiscoveRx PathHunter D2 beta-arrestin, luminescence, 90 min; 100% = 57 uM dopamine signal; in the data active = activation above about 40%; inconclusive = about 15% to 40%; inactive = below about 15%; further: compound concentration not given in the record; the text of the record calls up to 30% inactive
#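 Agonist mode: compounds alone added to overnight-plated D2 PathHunter cells for 90 min at 37 C, with 57 uM final dopamine (EC100) defining full response. Beta-arrestin recruitment detected by chemiluminescent reagent, read after 1 h at ambient temperature.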
# PINK1 expr mod = modulators of PINK1 expression; PINK1 immunofluorescence, high-content cytometry, 24 h; Potency, µM (series often up to 76.6 µM), for inactives: top-dose activation (PINK1 increase), usual class: activators; 410,000 tested, 0.2% active; active = well fitted activation curve with a large enough effect; inconclusive = small, poorly fitted or top-dose-only effect; inactive = flat fitted curve, though single readings scatter; cell line not stated here;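 further: potency means the concentration at half of the fitted maximal effect; % of control where 0% means no effect; nearly all actives have a fitted effect of over 65% in size; a mitochondrial uncoupler was the plate control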
#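 Fluorescence from anti-PINK1 antibody, together with nuclear and cell stains, was scanned on a laser-scanning cytometer. Before staining, stable-line cells were incubated 24 hours with compounds at 5 concentrations; primary antibody 12 h at 10 degrees C.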
# CtBP-E1A blk = CtBP/E1A binding inhibition; AID 651724; AlphaScreen GST-E1A/His-CtBP binding, 1536-well; active compounds read low; control for the full effect not named in the record; 340,000 tested, 0.49% active; activity change, % (no concentration beside the values); in the data active means activity change below about -65%; inconclusive means about -30% to -65%; inactive means above about -30%; further: on the % scale 0 is the no-effect control and ±100 the full control effect
#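 Steps: dispense buffer (Tris pH 8.0, NaCl 300 mM, TCEP 1 mM, BSA, Tween 20); add 5X protein mix (GST-E1A, His-CtBP, 125 nM each); pin 23 nL compound; 2 h at 37 °C, dark; add 5X beads (50 ug/mL); 1 h; read.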
# TRPML1 ag = activates the human TRPML1 channel; AID 624414; activation, % (test concentration not listed); TRPML1-expressing cells, Ca2+ dye fluorescence, FDSS; host cell line not named in the record; reference of the full effect not given here; Q9GZU1; 410,000 tested, 0.12% active; in the data active = activation above about 50%; inconclusive = about 30% to 50%; inactive = below about 30%; further: 0% is about no effect; the text of the record puts the active cut at 80%
#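 Calcium fluorescence on an FDSS kinetic reader gave the read-out. Tet-induced TRPML1-DL cells were plated overnight, dye-loaded (Ca8 with quencher, 45-90 min, room temperature, dark), then read 110 s after compound addition, and again 110 s after 4uM final 54-4 (EC80).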
# D2 potentiator = human D2 receptor positive allosteric modulation; P14416; DiscoveRx D2 beta-arrestin cells, luminescence, 90 min; 100% = 57 uM dopamine signal; potentiation, % (no concentration beside the values); 360,000 tested, 0.23% active; active = potentiation of 50% or more; inconclusive = 30% to 50%; inactive = 30% or less;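 further: compound concentration not given in the record; tested on top of an EC20 dose of dopamine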
#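 D2 cells co-treated with compound plus 50 nM dopamine (EC20) for 90 min at 37 deg C to detect potentiation. Beta-arrestin recruitment was read as enzyme-fragment luminescence after 1 h at ambient temperature. Full response was set by 57 uM dopamine.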
# Six1-Eya2 inh = inhibitors of human Six1/Eya2 interaction; 360,000 tested, 0.56% active; activity change, % (no concentration beside the values); AID 651725; AlphaScreen GST-Six1/His-Eya2 binding, biochemical; active compounds read low; control for the full effect not named in the record; Q15475+O00167; in the data active = activity change below about -65%; inconclusive = about -30% to -65%; inactive = above about -30%; further: on the % scale 0 is the no-effect control and ±100 the full control effect
# Target sequence (O00167 whole entry, looked up): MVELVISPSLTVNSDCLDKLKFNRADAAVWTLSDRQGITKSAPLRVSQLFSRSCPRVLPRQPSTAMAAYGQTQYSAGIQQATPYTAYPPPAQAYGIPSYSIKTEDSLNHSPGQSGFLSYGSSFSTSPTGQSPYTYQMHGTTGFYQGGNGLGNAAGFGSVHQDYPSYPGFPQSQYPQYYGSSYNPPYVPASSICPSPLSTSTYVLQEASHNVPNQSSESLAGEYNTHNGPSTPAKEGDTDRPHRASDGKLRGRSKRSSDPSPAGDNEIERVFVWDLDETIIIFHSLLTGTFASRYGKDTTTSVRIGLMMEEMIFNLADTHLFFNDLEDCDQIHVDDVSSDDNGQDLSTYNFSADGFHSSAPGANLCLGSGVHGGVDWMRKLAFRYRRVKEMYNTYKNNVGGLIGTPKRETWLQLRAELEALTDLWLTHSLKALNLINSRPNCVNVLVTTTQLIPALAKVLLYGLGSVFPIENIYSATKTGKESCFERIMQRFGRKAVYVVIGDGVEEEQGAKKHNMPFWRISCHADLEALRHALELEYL
# Target sequence (Q15475 whole entry, looked up): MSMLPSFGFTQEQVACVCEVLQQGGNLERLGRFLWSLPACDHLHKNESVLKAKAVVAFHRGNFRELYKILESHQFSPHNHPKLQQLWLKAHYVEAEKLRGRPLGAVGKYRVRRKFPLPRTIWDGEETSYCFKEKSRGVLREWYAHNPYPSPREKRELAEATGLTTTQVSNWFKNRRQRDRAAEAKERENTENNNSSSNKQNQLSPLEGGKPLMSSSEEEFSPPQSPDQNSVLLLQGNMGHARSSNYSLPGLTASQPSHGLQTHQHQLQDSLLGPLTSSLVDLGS
#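 Compounds are tested against tagged Six1 and Eya2 proteins bridged by glutathione donor and nickel acceptor beads; after a one-hour incubation at 37 °C without light, AlphaScreen emission is recorded.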
# Numbers without * were called inactive; u = inconclusive; x = no result given; & = joins results of further samples; [ ] = remark or other dose. Random draw from the library; overall some 1.3% were active at least once.
SMILES,D2 agonist,PINK1 expr mod,CtBP-E1A blk,TRPML1 ag,D2 potentiator,Six1-Eya2 inh
Cc1ccc(NC(=O)C2CC2c2ccccc2)cc1 (configuration not stated),-1.7,2.2%,7,0.7,-4,9
COc1ccc(N2CCN(C(=O)CCc3ccc(S(=O)(=O)NCC(C)C)cc3)CC2)cc1,1.5,3.9%,-4,-0.1,-3,-6
O=C(NCc1ccc2c(c1)OCO2)c1cc(S(=O)(=O)N2CCCCC2)ccc1F,-3.3,13%[38.3 µM],-2,-0.1,-13,-1
Oc1c(CN2CCN(c3ccc(F)cc3)CC2)cc(Cl)c2cccnc12,-7.6,0.4%,-86*,1.8,-16,-81*
N#C/C(=C\c1ccc[nH]1)C(=O)Nc1ccccc1[N+](=O)[O-],u,2.2%,-19,0.3,4,-23
Cc1c(C)[n+](=O)c(C)c(C)n1[O-],-3.0,-2.3%,0,0.2,-1,10
O=C(O)c1ccccc1C(=O)N(Cc1ccccc1)Cc1ccccc1,-0.5,-4.8%[38.3 µM],-8,-0.2,-2,2
COc1ccc(-c2nc(CN3CCC(C(=O)N4CCOCC4)CC3)c(C)o2)cc1OC,-4.9,0.7%,2,-0.4,-5,0
CN(/C(=N/S(=O)(=O)c1cccs1)c1ccccc1)c1ccccc1,0.7,-0.3%,0,0.2,-6,8
CC(=O)N1c2ccc(S(=O)(=O)N3CCCC(C(=O)N4CCC(C)CC4)C3)cc2CC1C (configuration not stated),-6.6,1.2%,-10,-1.0,-4,3
COc1ccc(C2=NN(C(=O)c3ccccc3)C(c3ccccc3)C2)c(O)c1 (configuration not stated),0.0,6.7%,12,1.9,4,27
CSc1ccc(/C=C(/NC(=O)c2ccco2)C(=O)NCc2ccco2)cc1,0.3,9.3%,-8,0.2,8,6
COc1ccc2cc(C(=O)N(C)CC(=O)Nc3ccccc3Br)ccc2c1,-2.0,-0.3%,-6,0.5,-3,1
COc1cccc(N2CCN(c3ncnc4c3cnn4-c3ccc(C)cc3C)CC2)c1,87*,-1.9%,-2,1.9,25,-25
Cc1ccc(S(=O)(=O)NCCc2nc3ccccc3[nH]2)cc1,u,3.7%,0,-0.4,-10,1
CCNC(=O)c1cc(Cl)ccc1OC,2.2,-0.2%,5,0.0,11,3
Cc1nc(SCC(=O)Nc2cc(C)on2)c2c(=O)n(C)c(=O)n(C)c2n1,1.1,-0.4%,1,0.0,0,-2
CCOC(=O)c1[nH]c(C)c(C(=O)/C=C/c2ccc(C(=O)O)cc2)c1C,-1.3,0.5%,2,-0.4,-2,3
COC(=O)CCN1CCC2CC1c1cc(N3CCCCC3)ccc12 (configuration not stated),-8.8,-0.3%,0,-0.1,-12,-6
CC(=O)N/C(=C\c1ccccc1)C(=O)OCc1ccc(C)cc1,3.0,3.2%,6,0.0,-7,9
CCN(C(=O)Cn1cnc2c1c(=O)n(C)c(=O)n2C)C1CCCCC1,2.6,0.3%,-5,1.2,-2,10
O=C(CN1C(=O)COc2ccc(Cl)cc21)Nc1ccccn1,-5.4,-2.0%,-8,1.0,-4,-5
CCCN1C(=O)/C(=C\C=C2\N(CC)c3ccccc3C2(C)C)SC1=S,-1.1,11%,-19,11,-8,-22
CCCOc1ccc2c3c(c(=O)oc2c1OCCC)CCC3,-1.5,-4.7%[38.3 µM],25,1.2,-7,19
OC(CNC1CCCc2ccccc21)COc1ccc2ccccc2c1 (configuration not stated),-0.4,-1.0%,x,-0.6,-5,-6
CN(C(=O)C1CCN(S(=O)(=O)c2cccs2)CC1)c1ccccc1,0.8,-0.4%,0,0.3,7,4
COc1[nH]c(/N=C/c2ccccc2)c(C#N)c1C#N,-0.9,1.3%&0.3%,u,3.4&7.9,-2,u
CCOC(=O)C1(CC)NC(c2ccco2)C2C(=O)N(C)C(=O)C21 (configuration not stated),-2.1,1.3%,5,-0.5,-12,5
N#CC(C#N)=CC1=C2OC(c3ccccc3)=CC(c3ccccc3)=C2CCC1,-1.9,2.3%[38.3 µM],-20,0.1,-1,-13
Cc1ccc2[nH]c(=O)c(CN(Cc3ccco3)C(=O)CN3CCCC(C)C3)cc2c1 (configuration not stated),0.3,-0.3%,2,-0.5,-1,6
N=c1sccn1CC(=O)Nc1ccc(S(N)(=O)=O)cc1,-1.9,6.8%,5,0.8,-1,20
Cn1cc(C(=O)NCCN2CCN(c3cccc(Cl)c3)CC2)c2c3ccccc3n(C)c2c1=O,-0.4,4.7%[38.3 µM],-5,-0.1,-27,-1
CN(C)C(=O)CCc1ccc2c3c([nH]c2c1)[C@]1(CCc2ccccc2)[C@@H](C(=O)N2CCCCC2)C[C@H](CC(=O)NCCCn2ccnc2)C(=O)N1CC3,-2.2,-0.7%,3,1.3,-1,3
CCCCNC(=O)C1c2ccccc2OCC(=O)N1Cc1ccc2c(c1)OCO2 (configuration not stated),x,0.1%,2,-0.5,x,1
Cc1[nH]n(-c2cccc(Cl)c2)c(=O)c1C=NC12CN3CN(CN(C3)C1)C2,-0.8,0.8%,7,0.2,-3,15
CCN1CCCc2cc(CN(CCN3CCOCC3)C(=O)Nc3ccc(C)c(C)c3)ccc21,8.4,3.5%,u,0.1,-11,u
O=C(CC1OC(=O)c2ccccc21)Nc1cccc(S(=O)(=O)N2CCCCCC2)c1 (configuration not stated),1.3,3.0%,-2,0.8,-4,-2
COC(=O)C1CCN(c2cc(=O)n(-c3ccccc3Cl)c(=O)[nH]2)CC1,3.1,-1.1%[38.3 µM],7,1.1,-4,3
S=C1NCCC12C(=S)Nc1ccccc12 (configuration not stated),-5.2,1.8%,9,x,-6,-1
O=C(Nc1ccc(Cl)cn1)c1cccc(S(=O)(=O)N2CCCC2)c1,-1.6,3.4%,-6,-1.4,-4,-24
COc1ccc(C2CC3CC(c4ccccc4)N2O3)cc1 (configuration not stated),-2.0,1.7%[38.3 µM],5,-0.5,-30,11
CCCCOC(=O)C[N+](C)(C)CCOC1CC2CCC1(C)C2(C)C (configuration not stated),-1.8,2.8%,6,0.1,-11,-1
O=C(Nc1ccc(O)c(C(=O)O)c1)c1cccc(NC(=O)c2ccco2)c1,-2.3,1.4%,-20,-0.5,-6,-16
O=C(CN(Cc1ccccc1)C1=NCCS1)c1ccc(Cl)cc1,-4.2,u,10,3.9,-7,18
Cc1noc(C)c1COC(=O)C1CCN(S(=O)(=O)c2ccc(F)cc2)CC1,-3.9,-0.1%,28,0.0,-3,-2

# Profiles, looked up by structure:
# `O=C(Nc1ccc(Cl)cn1)c1cccc(S(=O)(=O)N2CCCC2)c1` is listed with D2 agonist = -1.6; PINK1 expr mod = 3.4%; CtBP-E1A blk = -6; TRPML1 ag = -1.4; D2 potentiator = -4; Six1-Eya2 inh = -24
# `Cc1[nH]n(-c2cccc(Cl)c2)c(=O)c1C=NC12CN3CN(CN(C3)C1)C2` is listed with D2 agonist = -0.8; PINK1 expr mod = 0.8%; CtBP-E1A blk = 7; TRPML1 ag = 0.2; D2 potentiator = -3; Six1-Eya2 inh = 15

# Next part
SMILES,D2 agonist,PINK1 expr mod,CtBP-E1A blk,TRPML1 ag,D2 potentiator,Six1-Eya2 inh
COc1ccc(CNC(=O)COC(=O)c2ccc(Br)cc2)cc1,2.6,5.3%,-14,-0.4,-2,-5
Cc1ccc(NC(=O)CCC(=O)c2ccc(Cl)s2)nc1,-3.3,2.6%,x,-0.5,-6,-1
Cc1nnc(Nc2ccc(Cl)cc2)n(N)c1=O,-4.3,3.0%,-3,4.4,-4,2
CN1/C(=C/C(=O)COC(=O)C2COc3ccccc3O2)C(C)(C)c2ccccc21 (configuration not stated),-1.6,2.2%,4,0.0,-4,-8
COc1ccc2[nH]c3c(=O)n(CCCC(=O)NC4CCCCC4C)c(=S)[nH]c3c2c1 (configuration not stated),-5.5,11%,2,-0.4,-10,-7
CC1(C)O[C@H]2CC(=O)OC[C@]23[C@H]2CC[C@@]4(C)[C@H](c5ccoc5)OC(=O)[C@H]5O[C@]54[C@]2(C)[C@@H](O)C[C@@H]13,-1.0,1.1%,7,-0.7,-2,2
CC(OC(=O)c1ccc2ccccc2n1)C(=O)Nc1ccc(N2CCOCC2)cc1 (configuration not stated),-2.5,-0.3%,-4,-1.5,1,-5
CC(OC(=O)C1CC1)C(=O)Nc1ncc(Cl)cc1Cl (configuration not stated),7.0,1.7%,9,-0.7,1,2
Cc1cccc(NC(=S)N(CCCN2CCOCC2)C(C)c2cc3ccccc3o2)c1 (configuration not stated),-7.1,0.1%,x,1.9,-17,-8
CSc1nc(C(=O)N2CCCC(C(=O)c3ccc(Cl)cc3)C2)cs1 (configuration not stated),-2.0,0.6%,x,0.6,-15,0
COC(=O)c1ccc(N/C=C\C(=O)c2ccc3c(c2)OCO3)cc1,-0.4,8.9%,-22,0.3,-3,2
CCOc1cccc(N)c1,-2.9,1.7%,-6,-0.8,-3,-2
c1ccc2c(c1)ccc1ccccc12,-1.0,7.9%,4,0.5,-3,18
CCCCc1nc2sc3c(=O)n(N)cnc3c2c2c1CCC2,-3.0,2.8%,2,0.5,2,5
Cc1cc(C(=O)CCC(=O)N(C)CC2COc3ccccc3O2)c(C)s1 (configuration not stated),0.7,2.4%,0,1.0,-8,-4

# Three compounds from above, ordered by length of the SMILES, falling:
SMILES,D2 agonist,PINK1 expr mod,CtBP-E1A blk,TRPML1 ag,D2 potentiator,Six1-Eya2 inh
CSc1ccc(/C=C(/NC(=O)c2ccco2)C(=O)NCc2ccco2)cc1,0.3,9.3%,-8,0.2,8,6
CSc1nc(C(=O)N2CCCC(C(=O)c3ccc(Cl)cc3)C2)cs1 (configuration not stated),-2.0,0.6%,x,0.6,-15,0
O=C(CN1C(=O)COc2ccc(Cl)cc21)Nc1ccccn1,-5.4,-2.0%,-8,1.0,-4,-5

# (cont.)
SMILES,D2 agonist,PINK1 expr mod,CtBP-E1A blk,TRPML1 ag,D2 potentiator,Six1-Eya2 inh
O=C(NCCC1CCCCN1S(=O)(=O)c1ccccc1)C(=O)Nc1ccccc1 (configuration not stated),14,0.5%,1,0.2,-20,-20
COc1ccc(NC(=O)Nc2ccc(C(=O)N3CCOCC3)cc2)c(OC)c1,-1.7,0.4%,1,0.0,-4,6
CCc1ccc(C2CC(c3ccco3)=NN2S(C)(=O)=O)cc1 (configuration not stated),-9.2,3.7%,3,0.1,-20,-4
Cc1cc(S(=O)(=O)Nc2ccc(C(=O)NCCCn3ccnc3)cc2)ccc1F,-5.2,-1.3%,2,0.3,-4,5
O=C(CN1CCN(Cc2ccccc2)CC1)Nc1ccc([N+](=O)[O-])cc1C(=O)Nc1ccccc1F,-3.8,-2.0%,x,1.8,8,-11
CCOCC(=O)Nc1ccc2c(c1)N(S(=O)(=O)c1cccs1)CCC2,-0.7,3.4%,5,-0.7,4,-1
CCCOC(=O)CC1C(=O)NCCN1C(=O)OC(C)(C)C (configuration not stated),1.4,2.7%,-5,-0.2,2,2
COc1ccc(NS(=O)(=O)c2ccc(N3C(=O)CCC3=O)cc2)cc1,-1.6,-4.2%,-13,-1.0,-2,-8
COCCCNc1nc(N)c([N+](=O)[O-])c(Nc2cc(OC)ccc2OC)n1,-0.7,0.9%,-15,0.3,-1,-3
